Screening data deposited in PubChem BioAssay by several laboratories.
FGF22 binding: binders of recombinant human FGF22 by thermal shift | Q9HCT0 | SYPRO orange fluorescence; percent of sucrose octasulfate shift, DMSO zero | calls only at 9.99 µM | 340,000 compounds, 1.5% hits | AID 651658;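 active = melting point raised past a set limit in the mean and every replicate; three in four hits are not shown here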
Target sequence (Q9HCT0 whole entry, looked up): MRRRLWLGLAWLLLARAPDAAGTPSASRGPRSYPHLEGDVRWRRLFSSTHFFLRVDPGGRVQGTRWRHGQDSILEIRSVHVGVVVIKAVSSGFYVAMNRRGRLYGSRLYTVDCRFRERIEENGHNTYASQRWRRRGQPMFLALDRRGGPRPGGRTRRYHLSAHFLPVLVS
Ecoli growth: E. coli growth inhibition; AID 1053175; Escherichia coli growth, OD600, 23 h; active compounds read low; 330,000 compounds, 0.21% hits; OD600 absorbance (concentration not given with the values);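 active = OD600 absorbance below the run mean of sample wells minus 3.6 SD, in any replicate, cut at about 0.56 in these data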;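 also: stock transfer was 300 nL into about 60 µL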
HNF4A DNA FP: change in binding of human HNF4 alpha to DNA. HNF4a-FITC DNA binding, fluorescence polarization, 1 h. activity change, % at 10 µM. 360,000 compounds, 0.3% hits. AID 1224865; in the data active = activity change above about 30%, passing the limit was not always enough;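 also: controls were the assay level and a saturating level of protein; the project sought stronger binding though the title names inhibitors; some compounds called inactive have numbers as strong as hits; positive values seem to mean higher polarization but the record does not say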
ALR inh: inhibitors of human sulfhydryl oxidase ALR | AID 485317 | purified ALR, DTT oxidation, H2O2 HRP-luminol luminescence | 290,000 compounds, 3.8% hits | inhibition, % (concentration not given with the values);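 active = mean and each replicate at 75% or more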;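 also: stock transfer was 7.5 nL into about 7.5 µL; 0% = neutral wells and 100% = wells with inactivated enzyme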
Target sequence (P55789 whole entry, looked up): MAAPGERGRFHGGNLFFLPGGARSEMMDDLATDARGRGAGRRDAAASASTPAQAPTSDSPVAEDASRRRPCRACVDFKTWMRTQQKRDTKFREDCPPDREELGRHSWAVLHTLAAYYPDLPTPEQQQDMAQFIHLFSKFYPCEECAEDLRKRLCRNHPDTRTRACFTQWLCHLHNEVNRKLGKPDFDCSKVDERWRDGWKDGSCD
Beta2AR agonist: agonists of human beta-2 adrenergic receptor inducing internalization | 340,000 compounds, 0.43% hits | response, % (no concentration beside the values) | Am2.2-beta2AR cells, FAP receptor internalization, flow cytometry; reference of the scale not given here | P07550;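 active = response above a set limit, near 3 SD of response in nonfluorescent compounds, cut at about 42% in these data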;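 also: stock transfer was 100 nL into about 11 µL; a reference agonist was the positive control; negative values mostly stem from fluorescent compounds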
Target sequence (P07550 whole entry, looked up): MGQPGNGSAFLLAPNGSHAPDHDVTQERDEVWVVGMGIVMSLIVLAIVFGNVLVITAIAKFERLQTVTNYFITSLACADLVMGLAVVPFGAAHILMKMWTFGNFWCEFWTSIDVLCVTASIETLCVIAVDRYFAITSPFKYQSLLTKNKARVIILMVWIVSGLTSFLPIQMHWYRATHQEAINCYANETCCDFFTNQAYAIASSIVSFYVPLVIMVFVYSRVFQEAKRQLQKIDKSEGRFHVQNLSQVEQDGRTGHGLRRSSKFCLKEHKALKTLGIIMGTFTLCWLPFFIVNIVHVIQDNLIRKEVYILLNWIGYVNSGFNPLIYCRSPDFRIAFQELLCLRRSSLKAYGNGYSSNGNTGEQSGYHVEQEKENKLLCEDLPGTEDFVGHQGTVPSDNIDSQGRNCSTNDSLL
rRNA inh HTS: inhibits bacterial ribosomal RNA function over humanized ribosomes | E. coli WT GFP vs humanized-ribosome RFP mutants, fluorescence, 24 h; active compounds read low; DMSO median 0, no signal -100 | 350,000 compounds, 1.6% hits | GFP signal change (wild-type ribosome), % (no concentration beside the values);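 active = significant combined selectivity score with lowered wild-type GFP, culture density cut under 30%, mutant RFP and density less affected; inactive = any of these conditions unmet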; also: one replicate is shown; some compounds called inactive have numbers as strong as hits
UCH37 DUB inh: blocks the human deubiquitinase UCH37. Q9Y5K5. purified proteasome/UCH37, Ub-AMC cleavage fluorescence. inhibition, % (concentration not given with the values). 330,000 compounds, 0.33% hits. AID 588478;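 active = mean of two replicates above 20%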;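 also: 0% = compound-free wells with enzyme and 100% = wells lacking proteasome; stock transfer was 100 nL into about 20 µL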
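Schedule: 30 min plus 25 min, room temperature / Material: human UCH37 within purified proteasomes / Technique: AMC fluorescence intensity at 355/460 nm / Buffer or medium: pH 7.4 Tris-HCl (50 mM) with ovalbumin, ATP-MgCl2, DTT / Controls: wells without proteasome as full block, compound-free enzyme plus substrate as uninhibited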
rRNA inh HTS OD600: further read-out of rRNA inh HTS, marked with its call; OD600 change, %; measured here: OD600 growth;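 optical density of the mix in the first replicate; 0 = DMSO median and -100 = no signal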
rRNA inh HTS RFP: recorded beside rRNA inh HTS, whose call it bears; RFP signal change, %; measured here: RFP humanized mutant strains;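 first replicate; 0 = DMSO median and -100 = no signal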
* hit, by the source's call; i = inactive; . = not tested or not shown. Not all compounds are listed; count on the stated rates, not on these rows.

smiles	FGF22 binding	Ecoli growth	HNF4A DNA FP	ALR inh	Beta2AR agonist	rRNA inh HTS	rRNA inh HTS OD600	rRNA inh HTS RFP	UCH37 DUB inh
O=C(CSc1n[nH]c(=O)n1C1CC1)Nc1ccc(F)c([N+](=O)[O-])c1	i	0.68	1.1	.	-1	7	13	-0.8	2.2
COc1ccc(CC(=O)NCc2nnc(SCc3ccc([N+](=O)[O-])cc3)n2C)cc1	i	0.66	-3.0	-1	0	-4	-6	13	2.3
CCOC(=O)C1=C(C)C(c2ccc(OC)cc2OC)NC(=O)N1 (configuration not stated)	.	0.74	-1.4	-3	5	.	.	.	-4.3
CC1CCCCC1NC(=O)COC(=O)/C=C/c1ccco1 (configuration not stated)	i	0.71	0.5	11	-7	5	7	-2.6	5.0
Cc1ccn2c(Cc3ccccc3)c(-c3ccc(Br)cc3)nc2c1	i	.	-1.6	.	.	4	-39	36	.
COc1ccccc1CNn1c(-c2cccc(C)c2)nc2ccccc2c1=O	i	0.66	-2.9	-2	-6	-19	-6	-3.4	1.0
Cc1cc(CCN2CCC(=O)NC2=S)ccc1OC(C)C	.	0.7	-3.3	.	1	.	.	.	0.3
Cc1ccc(S(=O)(=O)/C(C#N)=C/c2c(N3CCN(C)CC3)nc3ccccn3c2=O)cc1	.	0.68	-1.6	-7	-15	.	.	.	0.0
CCOc1ccc(OCC)c(NC(=O)c2ccc(CNc3c(N4CCCC4)c(=O)c3=O)cc2)c1	i	0.71	2.9	-16	21	12	10	2.0	1.2
COc1cc(C(=O)Oc2cc(C)cc(C)c2)cc(OC)c1OC	.	0.79	-4.2	-1	-5	.	.	.	-1.7
Cc1ccccc1-c1nc2cc(N)ccc2o1	i	0.64	0.4	-72	1	-15	-14	-0.9	-91
CCCc1cc(=O)[nH]c2nnc(SCC(=O)Nc3nnc(CC)s3)n12	i	0.69	-0.4	.	-2	-13	-19	2.6	1.3
COC(=O)[C@H](Cc1c[nH]c2ccccc12)NC(=O)NCc1ccccc1	i	0.61	-1.0	11	-2	8	6	1.6	0.7
CN(CC(=O)Nc1ccc(F)cc1)C(=O)c1cccc(S(=O)(=O)N2CCN(c3ccc(F)cc3)CC2)c1	i	0.64	14	1	0	-38	-54	3.8	0.4
O=C(O)CCC(=O)N1CCc2cc(S(=O)(=O)N3CCCCC3)ccc21	i	0.72	1.9	7	6	-3	-2	-12	-1.1
Cn1cnnc1SCC(=O)c1cc2ccccc2o1	i	0.67	4.6	88*	2	1	11	2.5	4.0
CC(NC(=O)Nc1ccccn1)N1C(=O)C2C3C=CC(C3)C2C1=O (configuration not stated)	.	0.7	2.8	-6	-8	.	.	.	23*
Cc1cccc(NC(=O)c2ccoc2C)n1	.	0.67	1.6	.	-1	.	.	.	0.3
CN1CCc2ccccc2C1C1CCNCC1 (configuration not stated)	.	0.68	0.6	-5	-7	.	.	.	4.7
CCOc1ccccc1NC(=S)C(=C([O-])c1ccc2c(c1)OCCO2)[n+]1ccc(CC)cc1	i	0.71	-1.9	.	.	-17*	-16*	12*	13
COc1ccc(C(=O)NCC(=O)c2ccccc2)cc1	i	0.67	2.2	-2	2	8	7	2.1	0.7
CCOc1ccc(NC(=O)c2ccc3c(=O)n4c(nc3c2)CCCCC4)cc1	i	0.69	4.4	3	0	-2	3	-1.9	3.7
O=S(=O)(NCCc1csc(-c2cccnc2)n1)c1cc(F)ccc1F	i	0.72	3.7	0	4	1	0	3.9	3.5
Cn1c(=O)c2c(ncn2CC(=O)OCC(=O)Nc2cc(Cl)ccc2Cl)n(C)c1=O	.	0.63	0.9	4	6	.	.	.	1.1
CNc1oc(-c2cccs2)nc1C#N	.	0.68	-3.2	14	-3	.	.	.	i
CSc1ccc(C(=O)/C=C/c2ccc(N)cc2)cc1	.	0.68	2.5	97*	2	.	.	.	5.4
COc1ccc(CNC(=O)c2ccc(C(C)(C)C)cc2)cc1	i	.	-1.0	2	-7	4	4	0.2	.
CC1=C(C(=O)N2CCCC(N3CCN(c4ccccc4F)CC3)C2)OCCO1 (configuration not stated)	i	0.67	-2.0	0	0	6	9	-2.5	-0.7
CCC1NC(=O)c2cc3ccccc3cc2-n2c1nc1ccc(OC)cc1c2=O (configuration not stated)	i	.	2.0	.	.	2	6	-2.6	.
O=C(COc1cccnc1[N+](=O)[O-])Nc1ccc2c(c1)OC(F)(F)O2	i	0.72	-1.7	-2	-11	.	.	.	3.5
O=C(NCCc1nc2ccccc2[nH]1)c1ccco1	.	0.71	-3.5	.	-3	.	.	.	0.6
CN(C)CCN(Cc1ccccc1)C(c1cc2ccccc2o1)c1nnnn1C(C)(C)C (configuration not stated)	i	.	0.9	.	.	-25	-30	-4.4	.
CCOc1ccc2[nH]cc(S(=O)(=O)c3ccc(Cl)cc3)c(=O)c2c1	i	0.68	1.0	-1	0	8	13	4.2	3.8
CCCCC(=O)N(CCC)CCC	i	0.67	0.2	-3	-2	7	11	5.2	0.4
COc1cccc(C2NC(=O)N(CCCC(=O)O)C(C)=C2C(=O)OCc2ccccc2)c1 (configuration not stated)	i	0.68	.	20	.	5	-7	-3.2	1.7
Cc1cc(NC(=O)C(C)C)n(-c2nc3ccccc3s2)n1	i	0.65	1.0	1	-9	8	2	6.7	0.3
CCN(CC)S(=O)(=O)c1cc(NC(=O)CNc2cccc(S(=O)(=O)N3CCCC3)c2)ccc1C	.	0.7	1.4	-1	19	.	.	.	0.7
O=C(CS(=O)(=O)c1ccc(F)cc1)N1CCOCC1	i	0.73	4.8	2	1	6	14	-2.1	5.1
COc1ccc(CSc2nnnn2-c2ccc(C(N)=O)cc2)cc1[N+](=O)[O-]	i	0.62	-1.2	.	7	8	14	-0.1	1.6
COc1ccccc1CNCc1ccc(OC)c2ccccc12	i	0.64	1.4	-5	5	1	-7	2.1	0.4
Cc1cc(-c2ccc(F)cc2)nc2cc(C(N)=O)nn12	.	0.67	4.7	-8	-4	.	.	.	-18
CC(C)c1ccc(S(=O)(=O)c2cn(Cc3ccc(F)cc3)c3cc4c(cc3c2=O)OCO4)cc1	.	0.67	.	-18	.	.	.	.	0.0
C/C(=N\NC(=O)c1nnn(-c2nonc2N)c1-c1cccs1)c1ccncc1	i	.	1.8	2	-1	4	7	-0.5	.
c1ccc(CCN2CN=C(Nc3nc4ccccc4s3)NC2)cc1	i	0.57	-2.8	2	-7	-11	-7	-1.1	4.0
C[C@]1(C(=O)O)Cc2oncc2C[C@@H]1C(=O)O	i	0.65	1.6	-3	20	13	1	-1.8	-0.6
COc1ccc(S(=O)(=O)N2CCCCCC2)cc1N(C)S(=O)(=O)c1ccc(C)cc1	.	0.66	-1.0	.	4	.	.	.	2.9
CCn1c(SCc2cccc(F)c2)nnc1-c1ccncc1	i	0.67	4.9	5	-3	9	12	0.9	4.1
C[C@@H]1C[C@H](O)c2cc(Cl)ccc2N1	.	.	2.4	-24	0	.	.	.	0.4
CCN(CC)S(=O)(=O)c1cccc(C(=O)Nc2cc(C)nn2-c2ccccc2)c1	.	0.66	0.0	.	-1	.	.	.	-1.6
CCN(CC(=O)Nc1ccccc1OC)C(=O)C1CCC1	i	0.62	0.4	-4	-2	1	4	0.1	-1.5

(next part)
smiles	FGF22 binding	Ecoli growth	HNF4A DNA FP	ALR inh	Beta2AR agonist	rRNA inh HTS	rRNA inh HTS OD600	rRNA inh HTS RFP	UCH37 DUB inh
CCOC(=O)c1cc2cc(OCc3ccccc3)ccc2nc1C	i	0.67	0.5	1	-3	15	9	0.8	-4.8
Cc1ccc(-c2nnn(CC(=O)N(Cc3ccco3)C(C(=O)NC(C)(C)C)c3ccncc3)n2)o1 (configuration not stated)	i	0.7	1.6	-12	-4	.	.	.	3.8
Cc1cc(C)cc(OCC(=O)Nc2cccc(C(=O)O)c2)c1	.	0.69	-9.2	-3	6	.	.	.	-0.5
CNC(=O)NC(=O)CSc1nc(-c2cccs2)c(C#N)c(=O)[nH]1	i	0.73	3.1	.	-1	19	21	18	5.8
CCn1c(SCC(=O)Nc2sc3c(c2C#N)CCCC3)nnc1-c1ccncc1	.	0.71	-0.2	0	-10	.	.	.	2.6
Cc1ccc(CN2CCN(Cc3c(C)nn(C(C)C)c3C)CC2CCO)o1 (configuration not stated)	i	0.68	-0.1	0	-2	9	8	1.2	-1.3
Cc1nn(-c2ccccc2)c(Oc2ccc(F)cc2)c1/C=N/n1cnnc1	.	.	-1.8	2	1	.	.	.	.
Cc1ccccc1OCC(=O)OCC(=O)Nc1ccc(Cl)cn1	i	0.69	-2.8	.	-1	5	11	-0.1	-3.4
COc1ccc(N(CC(=O)NC2CCCC2)S(=O)(=O)c2ccc(NC(C)=O)cc2)cc1	i	0.67	1.1	.	-6	-2	-3	0.1	0.1
CCOC(=O)c1c(NC(=O)c2cccs2)sc2c1CCCC2	.	0.74	-0.8	.	-7	.	.	.	-135
Oc1c(CN2CCCC(C(F)(F)F)C2)cc(Cl)c2ccccc12 (configuration not stated)	i	0.7	0.9	-27	14	-6	-19	8.4	-12
C/C(CC(=O)Nc1cccc(Cl)c1Cl)=N\NC(=O)C(=O)N1CCCC1	i	.	1.9	-3	-1	0	5	1.0	.
Clc1ccc(-n2cc(-c3ccc(Br)cc3)[n+]3c2CCCCC3)cc1	i	0.67	-1.5	-7	5	-46*	-24*	-14*	7.0
COc1ccc(OC)c(NC(=O)CCN2CC(C)CC(C)C2)c1 (configuration not stated)	.	0.67	0.5	-12	4	.	.	.	2.7
CC(OC(=O)C1=COCCO1)C(=O)Nc1ncc(Cl)cc1Cl (configuration not stated)	i	0.68	1.1	.	-1	15	6	-1.7	2.7
COc1ccc(C(C(=O)NCC2CCCO2)N(C(=O)CNC(=O)c2cccs2)c2ccc(NC(C)=O)cc2)cc1OC (configuration not stated)	i	0.72	12	-5	-1	18	20	0.5	3.9
CCc1nc2ccc(C(=O)Nc3ccc4c(c3)OCO4)cc2nc1CC	.	0.69	-0.1	.	13	-14	-3	-1.7	2.3
COc1ccccc1CN(C(=O)CCl)C(C(=O)NC1CCCCC1)c1ccncc1 (configuration not stated)	.	0.7	-2.4	1	5	.	.	.	3.7
COC(=O)Nc1ccc(S(=O)(=O)N2CCCC(C(=O)N3CCC(C)CC3)C2)cc1 (configuration not stated)	i	0.68	0.6	2	-2	-14	-25	-5.3	3.0
Cc1ccccc1NC(=O)COC(=O)c1cc[n+]([O-])cc1	i	0.7	-1.9	-8	0	1	5	-2.3	-1.8

Sorted by the number under rRNA inh HTS (ascending): four from the list above
| mol | rRNA inh HTS |
| --- | --- |
| COC(=O)Nc1ccc(S(=O)(=O)N2CCCC(C(=O)N3CCC(C)CC3)C2)cc1 (configuration not stated) | -14 |
| COc1ccc(N(CC(=O)NC2CCCC2)S(=O)(=O)c2ccc(NC(C)=O)cc2)cc1 | -2 |
| Cc1ccccc1OCC(=O)OCC(=O)Nc1ccc(Cl)cn1 | 5 |
| Cc1ccc(CN2CCN(Cc3c(C)nn(C(C)C)c3C)CC2CCO)o1 (configuration not stated) | 9 |
